# Screening data from PubChem.
# VDR inhibitor – inhibitors of human vitamin D receptor. Potency, µM, without a hit: max response, negative = inhibition, most hits filed as inhibitors. AID 504847. VDR-SRC2-3 peptide fluorescence polarization, 2 h. hit rate 0.93% among 400,000; active = well fitted inhibition curve with a large enough effect; inconclusive = small, poorly fitted or top-dose-only effect, or another doubt; inactive = no such curve, though single readings can be large or run the other way; note: series mostly up to about 120 µM
# Target sequence (P11473 whole entry, looked up): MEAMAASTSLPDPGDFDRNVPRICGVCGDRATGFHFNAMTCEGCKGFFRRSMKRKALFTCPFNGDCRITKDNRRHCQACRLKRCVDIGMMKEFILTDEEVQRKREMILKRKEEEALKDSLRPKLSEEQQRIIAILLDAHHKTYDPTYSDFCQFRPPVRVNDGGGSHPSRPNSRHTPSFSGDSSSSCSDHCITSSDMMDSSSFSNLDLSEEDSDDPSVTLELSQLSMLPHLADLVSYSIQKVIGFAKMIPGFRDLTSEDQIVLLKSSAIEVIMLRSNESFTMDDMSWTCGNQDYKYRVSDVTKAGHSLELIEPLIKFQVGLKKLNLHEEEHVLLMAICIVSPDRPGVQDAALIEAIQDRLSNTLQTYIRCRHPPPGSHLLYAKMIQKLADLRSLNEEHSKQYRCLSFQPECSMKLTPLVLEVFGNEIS
#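 Inhibition of the VDR/SRC2-3 peptide interaction is quantified by fluorescence polarization. Compounds (23 nl, pintool) incubate with the reagents for 2 hours at ambient room temperature.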
# * hit, by the source's call; ? = inconclusive. % is set by controls: 0 for no effect and ±100 for the full control effect; potency is the fitted concentration of half-maximal effect.
compound,VDR inhibitor
Cn1c(=O)cc(SCC(=O)Nc2cccc(C#N)c2)c2ccc(Cl)cc21,4%
CC(=O)C1(O)C(C)CC2C3CC=C4CC(O)CCC4(C)C3CCC21C (centres undefined),13%
CC(C)N(CCO)Cc1nc(C(c2ccccc2)c2ccccc2)no1,5%
CCOC(=O)c1nc(C)sc1-c1ccnn1S(=O)(=O)c1ccc(Cl)cc1Cl,-13%
O=C(Nc1cccc2[nH]ncc12)NS(=O)(=O)c1ccccc1,3%
O=C(NCCc1ccc(Cl)cc1)C1CCC(CNc2c(N3CCCCC3)c(=O)c2=O)CC1 (centres undefined),0%
CCc1ccc2[nH]c3nc(SCc4nnc(-c5ccc(C)cc5)o4)nnc3c2c1,2%
CCOC(=O)c1ccc(S(=O)(=O)Nc2nc3cc(S(=O)(=O)NC4=NCCCCC4)ccc3s2)cc1,?
CN(NS(=O)(=O)c1ccc(Cl)cc1)c1ncc(C(F)(F)F)cc1Cl,-3%
CCOc1cccc(CN(CC)CC2CCCN(CCc3cccc(OC)c3)C2)c1O (centres undefined),-10%
Cc1ccc(NC(=O)Cn2sc3nc(C)cc(C)c3c2=O)c(Cl)c1,?
Cc1cccc(CN2CCc3nc(N4CCN(c5ccccn5)CC4)ncc3C2)c1,8%
Cc1ccc(-c2nn3c(C)nnc3s2)cc1NC(=O)c1ccc(-c2cccc(Cl)c2)o1,-2%
O=C(NCCc1ccccc1)c1cc(S(=O)(=O)N2CCCCC2)c[nH]1,3%
CCn1cc2nc(SCc3cccc(F)c3)n(CCc3ccccc3)c(=O)c2n1,4%
Cc1cc(C(=O)N2CCN(C/C=C/c3ccccc3)CC2)cs1,14%
N#CC1=C(N)Oc2cc(N)ccc2C1c1cccc(Br)c1 (centres undefined),8%
CN1CCN(C(=O)CSc2nnc(COc3ccc(Cl)cc3)o2)CC1,-2%
O=P1(O)C=C(c2ccccc2)OC(c2ccccc2)=C1,0%
CC(C)n1c(SCC(=O)NC2CCCCC2)nnc1-c1ccco1,-12%
Cc1nc2nc(NCc3cccs3)nn2c(C)c1Cl,2%
COc1ccc(S(=O)(=O)N2CCN(Cc3ccco3)CC2)cc1,-6%
CCCCc1ccc(Nc2nc(N3CCOCC3)nc(N3CCOCC3)n2)cc1,-14%
Cc1ccc(S(=O)(=O)c2c(C)nn(C(C)(C)C)c2OC(=O)CC(C)C)cc1,5%
Cc1ccc2nc(-c3ccc(Cl)c(NC(=O)c4ccc5c(c4)OCCO5)c3)oc2c1,9%
CC(=O)N/N=C(\C)CCc1ccccc1,-12%
O=C(c1ccc(Cl)c(S(=O)(=O)NCc2ccccc2)c1)N1CCN(c2ccccn2)CC1,12%
COc1ccc(OC)c(CNn2c(-c3ccccc3F)nc3ccccc3c2=O)c1,3%
O=C(NCCC(=O)N1CCN(S(=O)(=O)c2ccccc2Cl)CC1)Nc1ccccc1,-5%
COC(=O)CN1C(=O)CSc2ccc(S(=O)(=O)Nc3cccc(C)c3C)cc21,-2%

# 4 neighbouring compounds from above, for reference:
compound,VDR inhibitor
N#CC1=C(N)Oc2cc(N)ccc2C1c1cccc(Br)c1 (centres undefined),8%
CN1CCN(C(=O)CSc2nnc(COc3ccc(Cl)cc3)o2)CC1,-2%
O=P1(O)C=C(c2ccccc2)OC(c2ccccc2)=C1,0%
CC(C)n1c(SCC(=O)NC2CCCCC2)nnc1-c1ccco1,-12%

# Next records follow:
compound,VDR inhibitor
CCCNS(=O)(=O)c1ccc(OCC(=O)N2CCc3ccccc3C2)c(C)c1,2%
CCOC(=O)C(C)n1cnc2c(nnn2-c2ccccc2)c1=O (centres undefined),-9%
CCCN(C(=O)c1cc(S(=O)(=O)N2CCN(CC)CC2)ccc1Cl)C1CCS(=O)(=O)C1 (centres undefined),7%
Cc1cc(C)c(C#N)c(Sc2ccccc2N)n1,2%
CN(C(=O)CSc1nc2c(c(=O)[nH]1)CCCC2)C1CCCCC1,-12%
Cc1ccccc1NC(=O)C1CCCN(S(=O)(=O)c2ccc(-n3cnnn3)cc2)C1 (centres undefined),?
CC(=O)c1cccc(OCC(=O)Nc2cccc(C(=O)Nc3c(C)n(C)n(-c4ccccc4)c3=O)c2)c1,-4%
CCN(CCn1cccn1)C(=O)CCc1nnc(-c2ccccc2)o1,13%
CS(=O)(=O)N(CC(=O)Nc1ccc(F)c(F)c1)c1cccc([N+](=O)[O-])c1,-5%
O=C(Nc1ccc2c(c1)OCO2)Nc1ccc(Cl)cc1Cl,4%
Cc1cccc(NC(=O)c2ccc(Cl)c(NC(=O)c3ccncc3)c2)c1C,-6%
C/C(=N\NC(=O)c1c(Br)cnn1C)c1ccc(NC(=O)c2ccc(F)cc2)cc1,1%
NC(=O)c1ccc(-n2nnnc2Oc2ccc(Br)cc2)cc1,-13%
C/C(=N\NC(=O)CNc1cccc(C(F)(F)F)c1)c1cccs1,-4%
COc1ccc(CCn2c(=O)[nH]c3cc(C(=O)NCCCN4CCOCC4)ccc3c2=O)cc1OC,-4%
CC(C)=Nc1ccccc1C1COC(=O)C1=N (centres undefined),7%
CN(Cc1ccccc1F)c1nc(-c2cccs2)nc2ccccc12,-7%
CN(C)S(=O)(=O)c1cccc(NC(=O)COc2ccc(C(=O)c3ccccc3)cc2)c1,3%
CCC(C)Nc1nc(C)nc2c1oc1ccccc12 (centres undefined),-3%
CNC(=S)N/N=C/c1ccc(OCc2ccccc2)c(Br)c1,-18%
COCCn1c(SCc2cc(=O)n3ccsc3n2)nnc1-c1ccncc1,6%
N#C/C(=N\Nc1ccccc1F)c1nc(-c2ccccc2)cs1,2%
CCOc1ccccc1-n1c(SCC(N)=O)nnc1-c1ccc(O)cc1,-8%
Cc1cccc(Nc2nc(N)c([N+](=O)[O-])c(NCc3ccco3)n2)c1,-9%
CN(CCc1cn[nH]c1)C(=O)C1CCC(=O)N(CC2CCCCC2)C1 (centres undefined),-4%
Cc1cc(C(=O)NCc2cc(C(=O)O)co2)co1,1%
CCCc1cc(-c2n[nH]c(=S)n2C(C)c2ccccc2)cs1 (centres undefined),-18%
Cc1c(C)n2c(SCC(=O)NCc3ccc4c(c3)OCO4)nnc2[nH]c1=O,3%
CC1CCN(S(=O)(=O)c2ccc3c(c2)N(CC(=O)NCCc2ccc(Cl)cc2)C(=O)CO3)CC1,4%
CC(=O)N/N=C(\C)CC(=O)Nc1ccc2c(c1)OCCO2,-3%

# Some of the entries above in a different format:
VDR inhibitor | Molecule
7% | CC(C)=Nc1ccccc1C1COC(=O)C1=N (centres undefined)
-6% | Cc1cccc(NC(=O)c2ccc(Cl)c(NC(=O)c3ccncc3)c2)c1C
13% | CC(=O)C1(O)C(C)CC2C3CC=C4CC(O)CCC4(C)C3CCC21C (centres undefined)
-14% | CCCCc1ccc(Nc2nc(N3CCOCC3)nc(N3CCOCC3)n2)cc1
5% | CC(C)N(CCO)Cc1nc(C(c2ccccc2)c2ccccc2)no1
? | Cc1ccc(NC(=O)Cn2sc3nc(C)cc(C)c3c2=O)c(Cl)c1
-3% | CN(NS(=O)(=O)c1ccc(Cl)cc1)c1ncc(C(F)(F)F)cc1Cl

# (further entries)
compound,VDR inhibitor
Fc1ccccc1COc1cccc(/C=N/n2cnnc2)c1,-10%
OCC#Cc1cnc2ccccc2c1,3%
COCCOC(=O)C1=C(C)NC2=C(C(=O)CCC2)C1c1ccc(N(C)C)cc1 (centres undefined),-1%
CC(O)(CS(=O)(=O)Cc1ccccc1)C(=O)Nc1ccc(C(F)(F)F)cc1 (centres undefined),11%
COc1cccc(-c2cc3nc(-c4ccccc4)cc(N4CCC5(CC4)OCCO5)n3n2)c1,19%
O=C(CN1CCCCC1)Nc1cccc(-n2cnnn2)c1,-5%
CC(=O)C1=C(O)C(=O)N(CCCN2CCOCC2)C1c1ccccc1[N+](=O)[O-] (centres undefined),1%
Cc1cccc(-n2ncc(Cl)c(Cl)c2=O)c1,-6%
COc1ccc(-c2[nH]c(-c3ccc(Cl)cc3)nc2SCC(=O)Nc2nccs2)cc1,-22%
Cc1cc(Oc2ccc([N+](=O)[O-])cc2)nc(N2CCOCC2)n1,-10%
C=CCn1c(C)cc(C(=O)COc2nncc3ccccc23)c1C,9%
COc1ccccc1NC(=O)Cn1nnc(C(=O)NCCc2ccccc2)c1N,-3%
CC(=O)N(c1cccc(Br)c1)C1C=CS(=O)(=O)C1 (centres undefined),1%
CSc1nncc(=O)[nH]1,1%
Cc1cccc(Cc2nnc(CCC(=O)NCc3ccncc3C)o2)c1,?
Cc1ccc(C2=NN(C(=O)CCC(=O)O)C(c3cccs3)C2)cc1 (centres undefined),-11%
CC(=O)Nc1ccc(NC(=O)c2ccc(Cn3cc(Cl)cn3)cc2)cc1,22%
CC(C)c1ccc(NC2CCCN(C(=O)C3=NN(C)C(=O)CC3)C2)cc1 (centres undefined),15%
CCC(C)NC(=O)CNC(=O)c1nn(-c2ccc(OC)cc2)c(=O)c2ccccc12 (centres undefined),5%
Cc1ccccc1NC(=O)COc1ccc(Br)cc1C,-13%
CCCCC(O)(CCCC)C(=O)NN(C(=O)CCl)c1ccccc1,-17%
COc1cc(/C=N/NC(=O)/C(=C\c2ccc([N+](=O)[O-])cc2)NC(=O)c2ccccc2)cc(OC)c1O,12%
O=C(NCc1ccccc1)C1CCN(C(=O)c2cnn(-c3ccccc3)c2-n2cccc2)CC1,3%
CCCc1ccc(C(=O)NNC(=O)c2ccc(Cl)cc2)cc1,-7%
Brc1c(-c2ccccc2)nc2n1Cc1ccccc1-2,-17%
COCc1cc(CN(C)C(=O)c2oc3c(F)cccc3c2C)[nH]n1,6%
Cc1ccc(C(=O)COC(=O)c2ccc(Br)o2)cc1C,-6%
COc1ccc(CNC(=S)N/N=C/c2ccc(O)c(OC)c2)cc1,-14%
O=C(Cc1cccs1)Nc1nnc(COc2ccccc2)s1,6%
CCN(CCCNC(=O)CNC(=O)c1nn(-c2ccc(OC)c(OC)c2)c(=O)c2ccccc12)c1ccccc1,2%
CN1CCC[C@@H]1CCNC(=O)c1cccc2c1C(=O)c1ccc(N3CCCC3)cc1S2(=O)=O,-12%
Cc1cc(C(C)(C)C)oc1C(=O)OCC(=O)NC1CCCCC1,-9%
CCc1ccccc1NS(=O)(=O)c1cc2c(cc1C)n(C)c(=O)c(=O)n2C,-17%
C/C(CC(=O)Nc1ccc(Cl)cc1Cl)=N\NC(=O)c1ccco1,-23%
COC(=O)/C=C\C(C#N)(C#N)N=Cc1ccc(OC)cc1,13µM*
CC(=O)NC1CCC(OC(=O)Nc2ccccc2)CC1 (centres undefined),7%
Cc1ccc2nc(-c3cccc(Cl)c3)c(Nc3ccc4c(c3)OCO4)n2c1,-2%
COc1ccc(CN2CCNC(=O)C2CC(=O)NC2CCOCC2)cc1C (centres undefined),2%
CCN1c2ccccc2-n2cccc2C12CCN(C(=O)Nc1ccccc1Br)CC2,7%
CCCN(CCC)C(=O)Cn1c(=O)n(-c2ccc(OC)cc2)c(=O)c2ccc(C(=O)NCc3ccc(C)cc3)cc21,11%
COc1ccccc1NC(=O)CCCCC(=O)Nc1ccccc1OC,-13%
O=C(Nc1ccc(-c2nnn(CC(=O)N3CCN(C(=O)c4ccco4)CC3)n2)cc1)c1ccc(F)cc1,13%
Cc1ccc(NC(=O)CN2C(=O)NC(C)(C3CC3)C2=O)cc1S(=O)(=O)N1CCCCC1 (centres undefined),-13%
Cc1ccccc1NC(=O)C1C2CCCC1C2c1ccccc1 (centres undefined),-8%
CC(C)c1ccc(S(=O)(=O)N2CCN(C(=O)c3cccc(F)c3)CC2)cc1,-1%
c1ccc(CSc2ncnc3c2cnn3Cc2ccccc2)cc1,5%
ON1C2CCCCC2N(O)C1c1c(F)c(F)c(F)c(F)c1F (centres undefined),-13%
CCC(c1nnnn1CCOC)N1CCN(c2nc3ccccc3s2)CC1 (centres undefined),4%
Cc1csc(NC(=O)CSc2nnc(-c3ccccn3)n2-c2ccc(C)c(C)c2)n1,-16%
CSCCC(NS(=O)(=O)c1ccc(C)cc1)C(=O)NCCc1c[nH]c2ccccc12 (centres undefined),17%
Cc1ccc(N2C(=O)C(Cl)=C(NCc3ccccc3)C2=O)c(C)c1,2%
Oc1c(C(c2ccccc2)N2CCN(c3cccc(Cl)c3)CC2)sc2nc(-c3ccco3)nn12 (centres undefined),-8%
Cc1ccc(NC(=O)CCn2cccc2)cc1Cl,-6%
CCc1nnc(NS(=O)(=O)c2ccc(NC(=O)c3ccccc3O)cc2)s1,-4%
Cc1oc(-c2ccccc2F)nc1CS(=O)CC(=O)NCc1ccccc1 (centres undefined),-9%
Cc1ccccc1-c1nc(CS(=O)(=O)CC(=O)NCc2ccco2)c(C)o1,-8%
CN1CC(=O)N2[C@H](c3ccc4c(c3)OCO4)c3[nH]c4ccccc4c3C[C@@H]2C1=O,-14%
O=C(CSc1nnc(COc2ccc(Cl)cc2)o1)Nc1ccccc1,-7%
Cc1ccc(C23CC4CC(CC(C(=O)OCC(=O)N(C)C)(C4)C2)C3)cc1,-9%
COC(=O)c1scc(C)c1NC(=O)c1ccc(Cl)cc1,-4%

# The results go on:
compound,VDR inhibitor
COc1ccc(-n2c(C)c([N+](=O)[O-])c3ccc(O)c(CN(C)C)c32)cc1,28%
CC(=O)Nc1ccccc1C(=O)C(=O)Nc1ccc(Cl)cc1,-12%
N/C(=N\OC(=O)Oc1ccccc1)c1ccc([N+](=O)[O-])cc1,6%
O=C1CSC(c2ccccc2[N+](=O)[O-])N1c1ccccc1 (centres undefined),-4%

# An excerpt (hit frequency here may not be typical).
